Source: PubChem BioAssay (Johns Hopkins Ion Channel Center)
KCNQ2 block = KCNQ2 potassium channel inhibitors, primary screen, cell-based, CHO-K1, FluxOR thallium flux, B-score (AID 2156). B-score at 10 µM. hit rate 1.1% among 310,000. O88943. 20 min; active compounds read low; only compounds with negative scores are shown here; some inactives read as strong as hits;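 active means fluorescence ratio B-score at most minus 3 library SDs, with starting brightness B-score within 2 library SDs, cut at about -5.5 in these data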
Target sequence (O88943 whole entry, looked up): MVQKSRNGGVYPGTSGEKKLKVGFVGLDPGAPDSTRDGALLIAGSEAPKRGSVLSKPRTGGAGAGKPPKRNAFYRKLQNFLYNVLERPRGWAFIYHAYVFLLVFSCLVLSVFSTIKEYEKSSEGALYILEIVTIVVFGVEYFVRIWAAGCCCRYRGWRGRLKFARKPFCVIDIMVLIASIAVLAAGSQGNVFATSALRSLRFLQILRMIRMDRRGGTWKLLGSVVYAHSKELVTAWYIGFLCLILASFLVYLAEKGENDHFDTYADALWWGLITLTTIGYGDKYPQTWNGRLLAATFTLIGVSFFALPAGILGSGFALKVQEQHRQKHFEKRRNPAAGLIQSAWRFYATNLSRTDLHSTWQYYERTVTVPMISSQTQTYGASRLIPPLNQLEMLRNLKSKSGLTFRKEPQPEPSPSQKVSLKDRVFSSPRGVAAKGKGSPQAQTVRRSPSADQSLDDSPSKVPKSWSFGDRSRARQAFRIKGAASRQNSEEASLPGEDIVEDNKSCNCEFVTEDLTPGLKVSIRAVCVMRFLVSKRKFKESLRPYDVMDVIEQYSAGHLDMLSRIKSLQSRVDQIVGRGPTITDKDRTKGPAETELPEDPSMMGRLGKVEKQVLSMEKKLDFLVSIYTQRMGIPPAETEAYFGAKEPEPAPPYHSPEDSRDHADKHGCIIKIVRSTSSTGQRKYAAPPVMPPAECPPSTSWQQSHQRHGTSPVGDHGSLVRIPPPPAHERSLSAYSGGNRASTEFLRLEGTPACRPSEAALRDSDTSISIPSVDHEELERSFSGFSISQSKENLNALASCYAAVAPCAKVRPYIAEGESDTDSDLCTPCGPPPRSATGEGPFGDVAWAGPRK
KCNQ2 block baseline = further read-out of KCNQ2 block, marked with its call; B-score; measured here: initial fluorescence intensity artifact check;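 brightness before thallium and not channel activity; 0 = typical well and far values either way flag optical interference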
An asterisk follows results filed as active; i = inactive. An excerpt; rates above refer to the full screens.

Every second line gives: KCNQ2 block	KCNQ2 block baseline
COc1ccc(/C=N/NC(=O)Cn2cnc3c2c(=O)n(C)c(=O)n3C)cc1
→ i	0.09
COc1c(C)cc(C(=O)C2CCCN(S(=O)(=O)N(C)C)C2)cc1C (stereo not given)
→ i	2.3
COc1ccc(CC(=O)NCc2n[nH]c(=S)n2-c2ccc(Br)cc2)cc1
→ i	-0.01
CC(C)(C)Cc1nnc(NC(=O)CCc2ccccc2)s1
→ i	1.9
COc1ccc(C(=O)C2CCCN(Cc3cnc(N4CCOCC4)s3)C2)c(OC)c1 (stereo not given)
→ i	0.66
CCOC(=O)c1nnn(-c2ccccc2C#N)c1C
→ i	0.72
CCCCc1ccc(NC(=O)CSc2nc(=O)n(CCCN3CCOCC3)c3c2CCC3)cc1
→ i	-0.52
Cc1cc(NS(=O)(=O)c2ccc(NS(=O)(=O)c3ccc(CC(C)C)cc3)cc2)nc(C)n1
→ i	-1.7
O=S(=O)(NC1CCSc2ccccc21)c1ccccc1 (stereo not given)
→ i	1.3
CCN1CCN(S(=O)(=O)c2ccc(C(C)(C)C)cc2)CC1
→ i	-0.1
O=C(Nc1nc2ccccc2[nH]1)c1ccc(F)c(S(=O)(=O)N2CCOCC2)c1
→ i	0.73
CCOC(=O)C1CCN(C(=O)C2CCC(=O)N(Cc3cccc(C(F)(F)F)c3)C2)CC1 (stereo not given)
→ i	0.5
Cc1ccccc1Cn1c(CN2CCN(c3ccc(F)cc3)CC2)nc2c1c(=O)n(C)c(=O)n2C
→ i	-1.2
CC(C)(C)NNC(=S)Nc1cccc(F)c1
→ i	-1.1
Oc1c(Br)cc(C2N=C(c3ccccc3)NO2)cc1Br (stereo not given)
→ i	0.23
Cc1ccc2c(c1)-c1c(ssc1=S)C(C)(C)N2C(=O)c1ccco1
→ i	0.09
CCC(Sc1nc2ccsc2c(=O)n1Cc1ccc(C(=O)O)cc1)C(=O)Nc1ccc(C)c(Cl)c1 (stereo not given)
→ i	0.26
CCc1ccc(N(C(=O)CCC(=O)Nc2cc(C)on2)C(C(=O)NC(C)(C)C)c2ccc(OC)cc2)cc1 (stereo not given)
→ i	-0.88
COc1ccc(OC)c(/C=N/N2CCN(c3ccc(Cl)cc3)CC2)c1
→ i	-1.3
COc1cc(CC(NC(C)=O)C(=O)NC2CCN(C(=O)c3cc(OC)c(OC)c(OC)c3)CC2)cc(OC)c1 (stereo not given)
→ i	1.8
CCN1CCN(C(=O)C2CCN(Cc3nc(-c4cccc(Cl)c4)oc3C)CC2)CC1
→ i	-0.52
CC1CCCN(Cc2cccc(Oc3ccccc3)c2)C1 (stereo not given)
→ i	0.33
Cc1ccc(S(=O)(=O)N(C)CC(O)Cn2c3ccccc3c3ccccc32)cc1 (stereo not given)
→ i	-0.47
O=C(COC(=O)CCSc1ccc(Cl)cc1)NCCc1ccccc1
→ i	1.3
COC(=O)c1ccccc1NC(=O)C1CCCN(S(=O)(=O)c2ccccc2)C1 (stereo not given)
→ i	0.1
Oc1ccccc1N=N/C(=N/Nc1ccccc1O)c1ccccc1
→ i	-1.2
COc1ccc(-n2nc(C(=O)NCC(=O)N3CCCC3)c3ccccc3c2=O)c(OC)c1
→ i	-1
O=C(NCc1ccc2c(c1)OCO2)c1cc(-c2ccccc2)c(N2CCOCC2)s1
→ i	-0.67
COc1ccccc1N1CCN(C(=O)N2CCOCC2)CC1
→ i	-1.7
CCOC(=O)c1[nH]c2ccccc2c1NC(=O)C1CCCC1
→ i	2.6
CCc1ccc(-n2c(SCC(=O)c3ccc4c(c3)NC(=O)CO4)nc3ccccc3c2=O)cc1
→ i	-0.65
COc1ccc(N=c2oc3c(OC)cccc3cc2C(=O)NCc2ccco2)c(OC)c1
→ i	0.01
CCOc1ccccc1/C=c1\sc2ncnn2c1=O
→ i	0.04
CC(=O)Nc1ccc(S(=O)(=O)N2CCN(C(C)CCc3ccccc3)CC2)cc1 (stereo not given)
→ i	1
Cc1cc(=O)oc2cc(NC(=O)C(C)Oc3ccc(F)cc3)ccc12 (stereo not given)
→ i	1.7
CC1CCCC(NC(=O)c2ccc3c(c2)OCO3)C1C (stereo not given)
→ i	-0.1
O=C(COc1ccccc1Cl)NC1CC1
→ i	-0.02
Cc1nc2ncnn2c(N2CCN(C(=O)c3cccc(F)c3)CC2)c1Cc1ccccc1
→ i	-1.6
CCCCc1c(O)nc(SCC(=O)c2ccccc2)n(-c2ccccc2C)c1=O
→ i	0.97
CCOC(=O)c1ccc(N2C(=O)CC(N3CCC(O)(c4ccc(Br)cc4)CC3)C2=O)cc1 (stereo not given)
→ i	-1.6

Compound profiles, as listed above:
Cc1cc(=O)oc2cc(NC(=O)C(C)Oc3ccc(F)cc3)ccc12 (stereo not given) as listed: KCNQ2 block = i; KCNQ2 block baseline = 1.7
CC1CCCC(NC(=O)c2ccc3c(c2)OCO3)C1C (stereo not given) as listed: KCNQ2 block = i; KCNQ2 block baseline = -0.1
CCOC(=O)c1[nH]c2ccccc2c1NC(=O)C1CCCC1 as listed: KCNQ2 block = i; KCNQ2 block baseline = 2.6

A second format for some results above.
compound	KCNQ2 block	KCNQ2 block baseline
CCc1ccc(-n2c(SCC(=O)c3ccc4c(c3)NC(=O)CO4)nc3ccccc3c2=O)cc1	i	-0.65
COc1ccc(N=c2oc3c(OC)cccc3cc2C(=O)NCc2ccco2)c(OC)c1	i	0.01

Following part
Every second line gives: KCNQ2 block	KCNQ2 block baseline
COc1ccc(-c2nc(C)sc2C)cc1
→ i	0.88
O=[N+]([O-])c1cccnc1Oc1cccnc1
→ i	1.1
COc1ccc(C2NC3=C(CCCC3)C(C#N)(C#N)C2(C#N)C#N)cc1 (stereo not given)
→ -5.8*	1.9*
CCOc1ccc2[nH]c(=O)c(CN(Cc3ccc(F)cc3)C(=O)c3ccco3)cc2c1
→ i	0.11
COC(=O)c1ccc(NC(=O)c2ccc(F)cc2)o1
→ i	1.5
Clc1ccc(Oc2nc(Oc3ccc(Cl)cc3)nc(N3CCOCC3)n2)cc1
→ i	1.9
O=C(NCCOc1ccccc1)C1CCCN1C(=O)c1cccs1 (stereo not given)
→ i	-3.6
CC/C(=N/Nc1ccccc1)c1cnnc(-c2ccccc2)n1
→ i	1.1
CCOc1ccc(S(=O)(=O)Nc2cc(OC)c(OC)cc2C(=O)O)cc1
→ i	3
Cc1ccc(Nc2cc(C)nc(N3CCOCC3)n2)cc1
→ i	-0.28
O=C(CCn1nnc2ccccc21)Nc1nnc(COc2ccccc2F)s1
→ i	0.18
CC(=O)C1=C(O)C(=O)N(c2ccccn2)C1c1cccc(F)c1 (stereo not given)
→ i	-0.97
COc1cccc(-c2cc(C(=O)NCC3CCCO3)c3ccccc3n2)c1 (stereo not given)
→ i	-1.6
CCOC(=O)N1CCN(C(=O)c2cn(CC)c3cc(N4CCN(C)CC4)c(F)cc3c2=O)CC1
→ i	0.47
O=C(CN(c1cccc(Cl)c1)S(=O)(=O)c1ccc(Cl)cc1)NCc1ccccn1
→ i	0.17
Cc1cc(-c2c(C)[nH]n(-c3ccc(Cl)cc3)c2=O)n(-c2ccccc2)n1
→ i	-1.5
COc1ccccc1/C=C/CN1CCCC(CO)(Cc2cccc(Cl)c2)C1 (stereo not given)
→ i	-1.3
CCN(c1ccccc1)S(=O)(=O)c1ccc(OCc2c(C)noc2C)cc1
→ i	-0.03
Cc1ccc(OCC(O)CNC(C)c2ccccc2)cc1C (stereo not given)
→ i	2
Cc1csc(SC(C)C(=O)NCC(=O)Nc2ccc(F)c(F)c2F)n1 (stereo not given)
→ i	-0.79

As entered above.
KCNQ2 block baseline, `CCCCc1ccc(NC(=O)CSc2nc(=O)n(CCCN3CCOCC3)c3c2CCC3)cc1` = -0.52
KCNQ2 block baseline, `COc1ccc(/C=N/NC(=O)Cn2cnc3c2c(=O)n(C)c(=O)n3C)cc1` = 0.09
KCNQ2 block baseline, `CCN1CCN(C(=O)C2CCN(Cc3nc(-c4cccc(Cl)c4)oc3C)CC2)CC1` = -0.52
KCNQ2 block baseline, `Cc1ccccc1Cn1c(CN2CCN(c3ccc(F)cc3)CC2)nc2c1c(=O)n(C)c(=O)n2C` = -1.2

The results go on:
Every second line gives: KCNQ2 block	KCNQ2 block baseline
COc1ccc(N2CCN(Cc3nc4cc(Cl)ccc4c(=O)[nH]3)CC2)cc1
→ i	-0.92
COc1ccc(/C(N)=N/OC(=O)CCC2CCCC2)cc1OC
→ i	0.83
COc1ccc(CSCCN)cc1Cl
→ i	-1
O=Cc1ccccc1-n1cncn1
→ i	0.65
COc1ccc(NC(=O)CN(C)C(=O)/C=C/c2cn(-c3ccccc3)nc2-c2ccc(F)cc2)cc1
→ i	-0.35
CCOC(=O)c1c(CC(C)C)csc1NC=O
→ i	0.69
Cc1cc(C)n(CC(O)COc2ccc(C(C)C)c(C)c2)n1 (stereo not given)
→ i	-3.4
Cc1ccc(S(=O)(=O)N2CCOCC2)cc1NC(=O)CN1CCN(c2ccc(O)cc2)CC1
→ i	-0.1
CC(=O)NC(=S)Nc1cc(C(=O)O)ccc1Cl
→ i	0.07
O=C(NC1CCCC1)NS(=O)(=O)c1ccccc1Cl
→ i	0.01
COc1ccccc1OCC(=O)Nc1cccc(N(C)S(C)(=O)=O)c1
→ i	0.01
Cc1cccc(N(C(=O)c2nsc(Cl)c2Cl)C(C(=O)NC2CCCC2)c2ccc(O)cc2)c1C (stereo not given)
→ i	-0.27
Cc1c(OCc2nn[nH]n2)ccc2c3c(c(=O)oc12)CCC(C)C3 (stereo not given)
→ i	0.67
COc1ccc(-n2nc(C(=O)NCC(=O)N3CC(C)CC(C)C3)c3ccccc3c2=O)cc1 (stereo not given)
→ i	-0.01
COC(=O)c1cn(CCOc2ccc(C)cc2)c2ccccc12
→ i	0.4
CCN1CCN(C(=O)C2(NC(=O)Nc3ccccc3Cl)CCCCC2)CC1
→ i	-3
COc1ccc(C(=O)CSC2=C(C#N)C3(CCCCC3)C(C#N)=C(N)N2)cc1
→ i	0.21
Fc1cccc(Cc2noc(CN3CCC(c4ccncc4)CC3)n2)c1
→ i	1.7
CCOC(=O)C(C(=O)OCC)N(C#N)c1nc(OC)nc(N(C)C)n1
→ i	-0.13
COc1ccc(OC)c(S(=O)(=O)N(C)CC(=O)N2CCN(c3ccccc3F)CC2)c1
→ i	1.7
COc1cccc(NC(=O)CCNS(=O)(=O)c2cccc3nonc23)c1
→ i	-0.18
CCCNC(=O)CN(CCc1ccccc1)S(C)(=O)=O
→ i	0.38
O=C(c1cc2ccccc2cc1O)N1CCCC1
→ i	0.57
Cc1[nH]c2ccccc2c1C(=O)COC(=O)C1CC(=O)N(Cc2ccco2)C1 (stereo not given)
→ i	0.67
COC(=O)c1cc(-c2cccs2)nc2ccccc12
→ i	-0.41
CCOc1ccccc1NC(=O)CN1CCC(C(=O)c2ccc(OC)cc2)CC1
→ i	-1
COc1cc(-c2nnc(SCC(=O)N(Cc3ccccc3)C(C)(C)C)o2)cc(OC)c1OC
→ i	0.2
O=C1OC2(O)C3C4C=CC(C4)C3C(=O)N2c2ccccc21 (stereo not given)
→ i	0.6
COc1cc(C(=O)OC(C)CN2CCCCC2)cc(OC)c1OC (stereo not given)
→ i	-0.26
CCCn1c(SCC(=O)Nc2cccc(C(=O)OCC)c2)nnc1-c1ccoc1C
→ i	0.05
Cc1cc(NC(=O)CCC(=O)N(Cc2ccco2)C(C(=O)NC2CCCC2)c2ccc(F)cc2)no1 (stereo not given)
→ i	0.97
CCn1c(CNC(=O)Cc2ccc(OC)cc2)nnc1SCC(=O)Nc1nccs1
→ i	0.31
COc1ccc(NC(=O)CN(C)C(=O)CSc2ccc3c(c2)OCCO3)cc1
→ i	-1.6
CCOc1ccc(-c2nnc(SCC(=O)NC(C)(C)C)nc2-c2ccc(OCC)c(OC)c2)cc1OC
→ i	2.5
CN(CC(=O)Nc1ccccc1F)Cc1cccs1
→ i	-1.1
Cn1nnnc1SCc1ccccc1F
→ i	-0.04
COc1cc2c(cc1NC(=O)CN1CCN(S(=O)(=O)c3ccccc3F)CC1)oc1ccccc12
→ i	1.4
c1ccc(-c2nc3cccnc3nc2-c2ccccc2)cc1
→ i	0.47
Cc1cccc(N2CCN(C(=O)c3ccccc3NC(=O)C3CCCCC3C(=O)O)CC2)c1 (stereo not given)
→ i	-0.75
CCN(CC)S(=O)(=O)c1ccc(Cl)c(C(=O)OC)c1
→ i	-0.25
O=C(c1csc(Nc2cccc3ccccc23)n1)N1CCCC1
→ i	-0.05
CN(CC(=O)Nc1cc(S(=O)(=O)N2CCCC2)ccc1Cl)Cc1cccs1
→ i	1.1
CCOC(=O)c1ccc(-n2ncc(C(=O)OCC)c2N)cc1
→ i	1.2
O=C(Nc1ccccc1)C(Cc1ccccc1)NC(=O)C12CC3CC(CC(C3)C1)C2 (stereo not given)
→ i	-0.47
N#C/C(C(=O)N1CCOCC1)=C1/SC(Cc2ccc(F)cc2)C(=O)N1c1ccccc1 (stereo not given)
→ i	0.23
Cc1ccccc1-n1c(SCC(=O)Nc2c(C)cccc2C)nc(O)cc1=O
→ i	0.96
CC(C)C(=O)NNC(=O)CN1CCN(c2nc(-c3ccccc3)cs2)CC1
→ i	-3
COc1ccc(Cl)cc1NC(=S)N(Cc1ccc(C(=O)O)cc1)Cc1ccc(OC)c(OC)c1
→ i	0.59
COc1ccc(/C=C/C(=O)OCC(=O)NCCC2=CCCCC2)cc1S(=O)(=O)N1CCOCC1
→ i	-0.34
COc1ccccc1N1CCN(C(=O)COc2cc(C)cc3oc(=O)cc(C)c23)CC1
→ i	-1.1
CC(C)OCCCNC1=C(Cl)C(=O)c2ccccc2C1=O
→ i	-0.67
Cc1ccc(C2C(C#N)=C(N)Oc3n[nH]c(-c4cccnc4)c32)o1 (stereo not given)
→ i	-1
c1ccc(OCc2cc(-c3ccccc3)no2)cc1
→ i	0.28
O=C1C(Cc2cccc([N+](=O)[O-])c2)SC(=Nc2ccccc2)N1c1ccccc1 (stereo not given)
→ i	0.41
CCCN1CCN(C(=S)NCc2ccc(Cl)cc2)CC1
→ i	1.6
Cc1cc(C(=O)NC2CCCc3c2cnn3-c2cccc(C)c2C)c(C)o1 (stereo not given)
→ i	1.1
